Assay outcomes from PubChem.
HSD17B inh: HSD17B dehydrogenase inhibition. Q99714. recombinant HSD17B10, NADH fluorescence kinetic; many of its hits are not listed in these tables. Potency, µM (series often up to 57.1 µM), for inactives: top-dose activity change, negative = inhibition, most hits filed as inhibitors. 7.6% of 75,000 active. AID 893; active = well fitted inhibition curve with a large enough effect; inconclusive = small, poorly fitted or top-dose-only effect; inactive = no such curve, though single readings can be large or run the other way;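 note: the protocol describes HADH2 (HSD17B10) and not the HSD17B4 of the title; nearly all actives have a fitted effect of over 70% in size; most hits overshoot -100% by far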
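Activity followed as NADH fluorescence increase (ex 360, em 450 nm) every 30 seconds for 4 min, using final 90 uM beta-hydroxybutyryl CoA and 1 mM NAD+. Recombinant His-tagged enzyme, 20 nM, pH 9.0 Tris buffer, 15 min compound preincubation.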
* marks the source's active call; other numbers are inactive results; ? = inconclusive; [ ] = another dose, or the depositor's remark. % is set by controls: 0 for no effect and ±100 for the full control effect; potency is the fitted concentration of half-maximal effect. Some of the compounds tested. The share of hits here may be higher or lower than overall.

SMILES	HSD17B inh
O=C1CC(N(O)c2ccccc2)C(=O)N1Cc1ccccc1 (stereo unspecified)	3.2%
CC(=O)Nc1cccc(Cn2cccn2)c1	4.6%
COc1cc(C)nc(N(Cc2ccccc2)S(=O)(=O)c2ccccc2)n1	-5.6%
COc1ccc(OC)c(C(O)c2nc3ccccc3n2C(C)C)c1 (stereo unspecified)	9.8%
CN(CCC(=O)O)S(=O)(=O)c1ccccc1	1.9%[11.4 µM]
CCCn1c(SCc2ccc(Cl)cc2)nc2c1c(=O)[nH]c(=O)n2C	-22.9%
OC(CNCC1CCCO1)Cn1c2ccccc2c2ccccc21 (stereo unspecified)	-1.3%
CCOC(=O)Cc1nnc(NC(=O)C(CC)Sc2nncn2C)s1 (stereo unspecified)	-0.6%
O=C(O)[C@H](Cc1ccccc1)NC(=O)N1CCOCC1	-1.1%
CS(=O)(=O)Nc1cccc(-c2nc(-n3ccnc3)c3ccccc3n2)c1	1.9%
CCOC(=O)C1CCN(S(=O)(=O)c2ccc(NC(=O)OC)cc2)CC1	-0.5%
CS(=O)(=O)N1CCN(C2CCN(Cc3ccccc3)CC2)CC1	9.3%
CC(CN1CCN(C)CC1)OC(=O)c1ccccc1Cl (stereo unspecified)	-0.4%
CCC(C)NC(=O)C(Cc1ccccc1)n1cccc1 (stereo unspecified)	8.8%
O=C(CN1CCCCC1)Nc1cc(Cl)ccc1Cl	-0.7%
CC1Cc2ccccc2N1C(=O)CCNS(=O)(=O)c1cccc2nsnc12 (stereo unspecified)	7.4%
COc1ccccc1NC(=O)CN1C(=O)C2(OCCCO2)c2ccccc21	1.9%
Cc1ccc(-c2noc(CCC(=O)NCCc3ccccc3Cl)n2)cc1	2.2%
COc1ccc(-c2noc(CCC(=O)Nc3cccc(C)c3)n2)cc1	8.8%
CCOc1cc2[nH]c(=O)n(CCCCC(=O)NCc3ccco3)c(=O)c2cc1OCC	25.1µM*
CC1CCCCN1C(=O)CSc1nc2ccccc2n1CC(=O)N1CCc2ccccc21 (stereo unspecified)	6.3%
Cc1cc(C(C)(C)C)cc(C)c1COC(=O)C1CCC(=O)N1 (stereo unspecified)	-8.7%
Nc1nc(-c2ccco2)nc(N2CCCCC2)n1	-7.5%
O=C1CC(N2CCN(C3CCc4ccccc4C3)CC2)C(=O)N1c1ccccc1 (stereo unspecified)	1.3%
COCCN(CC(=O)NCc1ccc(F)cc1)C(=O)CCC(=O)Nc1nccs1	16.3%
SMILES	HSD17B inh
COc1ccccc1NC(=O)N(Cc1ccco1)Cc1cc2c(C)ccc(C)c2[nH]c1=O	31.6µM*
O=C(NCCN1CCC(Cc2ccccc2)CC1)C1CCCN(S(=O)(=O)c2cnc[nH]2)C1 (stereo unspecified)	4.9%
CC(=O)c1ccc(N2CCN(CCC#N)CC2)c(F)c1	3.0%
CN(c1ccccc1)S(=O)(=O)c1cccc(C(=O)N2CCN(c3ccccn3)CC2)c1	1.5%
Cc1cccc(C(=O)N2CCN(Cc3ccc4c(c3)OCO4)CC2)c1	3.8%
C=CCOc1ccccc1CNCc1cccnc1	9.2%
Cc1ccc(C)c(S(=O)(=O)NCCOC(=O)Nc2sc(=S)n(C)c2C)c1	-25.4%
COc1ccc(C(=O)N2CCN(S(=O)(=O)c3cc(Cl)ccc3OC)CC2)cc1	-0.6%
c1ccc2c(c1)ccc1ncccc12	-29.5%
Cc1csc(=Nc2c(C)n(C)n(-c3ccccc3)c2=O)n1Cc1ccccc1	-1.1%
COc1ccc(CN2CCN(S(=O)(=O)c3ccc(NC(C)=O)cc3)CC2)cc1OC	-5.3%
O=C(CN(C1CCCCC1)S(=O)(=O)c1ccc(F)cc1)NCc1ccncc1	0.1%
O=C(Nc1cnn(Cc2ccc(Cl)cc2Cl)c1)c1cc(-c2cccs2)on1	20µM*
Nc1nc2ncc(CNc3ccc(C(=O)N[C@@H](CCC(=O)O)C(=O)O)cc3)nc2c(=O)[nH]1	25.1µM*
COc1ccc(-c2nnc3sc(C(C)N4C(=O)c5ccccc5C4=O)nn23)cc1 (stereo unspecified)	5.8%
COCCN(CC(=O)Nc1ccccc1C)S(=O)(=O)c1ccc(S(=O)(=O)N2CCCC2)cc1	-15.0%
CCC1(CC)Cc2ccccc2C(N)=C1C#N	-23.2%
CC1CCCCC1NS(=O)(=O)c1ccc(S(=O)(=O)NCc2ccncc2)cc1 (stereo unspecified)	-9.9%
O=S(=O)(c1ccc(S(=O)(=O)N2CCN(C/C=C/c3ccccc3)CC2)cc1)N1CCCC1	-6.7%
CCC(C)Sc1nc2c(c(=O)[nH]c(=O)n2C)n1CCc1ccccc1 (stereo unspecified)	-1.3%
COc1ccccc1N1CCN(C(=O)c2oc3ccccc3c2C)CC1	-2.0%
CCc1nn(CC(=O)NCCN2CCN(C)CC2)c(=O)c2cc3occc3n12	7.8%
O=C(Cc1coc(-c2ccc(F)cc2)n1)NCc1ccccc1	3.2%
C=CCn1c(SCC(=O)Nc2ccc3c(c2)OCCO3)nnc1-c1ccco1	3.6%
CC(C)NC(=O)N1CCCC2(CCN(S(=O)(=O)c3ccccc3)CC2)C1	-9.9%
SMILES	HSD17B inh
O=C1CN(C(=O)CSc2nnnn2-c2ccc(Cl)cc2)c2ccccc2N1	-2.5%
CCC/C=C(\CCC)C(NC(=O)c1cccs1)c1ccc(C(F)(F)F)cc1 (stereo unspecified)	4.0%
O=C(CN(CCCN1CCOCC1)C(=O)Cn1nnc(-c2ccc(F)cc2)n1)NC1CCCCC1	-1.5%
Oc1ccc2cc(SSc3ccc4cc(O)ccc4c3)ccc2c1	?
Cn1c(CN2CCOCC2)nnc1SCC(=O)Nc1ccc2c(c1)OCCO2	5.4%
COC(=O)C1=C(C(=O)c2ccc(C)cc2)C(c2ccc(OC)c(OC)c2)n2nnnc2N1 (stereo unspecified)	-2.5%
Cc1nc(NC2CCCCC2)c2nc(-c3ccccc3)n(CC3CCN(C)CC3)c2n1	25.1µM*
O=S(=O)(c1ccc(N2CCCC2)cc1)C(F)(F)F	0.7%
O=C(CN1CCC(n2nnc3cc(C(F)(F)F)ccc32)CC1)N1CCc2ccccc21	8.6%
O=C(Cn1nc(-c2ccccc2)ccc1=O)NCC1COCCO1 (stereo unspecified)	-6.1%
CN(C)Cc1ccccc1-c1nc(NC2CC2)c2ccccc2n1	4.1%
Cn1cccc1C(=O)c1ccc(Cl)cc1Cl	-8.5%
O=C(Nc1ccccc1C(=O)N1CCCC1)c1cccc(S(=O)(=O)N2CCCCC2)c1	7.0%
COc1ccccc1CNc1cc(-c2ccccc2C(F)(F)F)ncn1	2.0%
CC(=O)C1C(c2cn(-c3ccccc3)nc2-c2cccs2)NC(=O)NC1(O)C(F)(F)F (stereo unspecified)	-3.7%
CC1(C)S[C@@H]2[C@H](NC(=O)[C@@H](NC(=O)N3CCNC3=O)c3ccccc3)C(=O)N2[C@H]1C(=O)O	2.1%[25.6 µM]
O=C(Nc1ccc(Cl)c(Cl)c1)OCc1cccnc1	3.7%
BrC(c1cccc2ccccc12)c1cccc2ccccc12	-5.6%[11.4 µM]
Cc1ccc2cc3cc(C(=O)NCCCN4CCc5ccccc5C4)oc3nc2c1	25.1µM*
CCOCCCNC(=O)c1cc2c(=O)n3cccc(C)c3nc2n1C	3.98µM*
O=S(=O)(Cc1ccccc1)N1CCN(C2Cc3ccccc3C2)CC1	2.7%
COc1cccc(NC(=O)C2CCCN2C(=O)Nc2ccccc2F)c1 (stereo unspecified)	11.3%
CC(=O)OC[C@@H]1O[C@@H](O/N=C2/C[C@@H](O)[C@@H](O)[C@@H]3[C@@H]4C(=O)N(Cc5ccccc5)C(=O)[C@H]4CC[C@@H]23)[C@H](OC(C)=O)[C@H](OC(C)=O)[C@@H]1OC(C)=O	-1.8%[11.4 µM]
CC1CN(C(=O)c2cc3c(s2)CCC3)CC(C)O1 (stereo unspecified)	6.4%
CCCC/C=C/C(NC(=O)c1ccc(C(=O)OC)cc1)c1ccccc1 (stereo unspecified)	4.5%

Five compounds from above, sorted by count of non-hydrogen atoms, rising.
SMILES	HSD17B inh
Cn1cccc1C(=O)c1ccc(Cl)cc1Cl	-8.5%
O=C(Nc1ccc(Cl)c(Cl)c1)OCc1cccnc1	3.7%
O=C1CN(C(=O)CSc2nnnn2-c2ccc(Cl)cc2)c2ccccc2N1	-2.5%
Cc1ccc2cc3cc(C(=O)NCCCN4CCc5ccccc5C4)oc3nc2c1	25.1µM*
CC(=O)C1C(c2cn(-c3ccccc3)nc2-c2cccs2)NC(=O)NC1(O)C(F)(F)F (stereo unspecified)	-3.7%

3 of the compounds above, bar-delimited.
Structure | HSD17B inh
O=C(Nc1ccccc1C(=O)N1CCCC1)c1cccc(S(=O)(=O)N2CCCCC2)c1 | 7.0%
COc1ccccc1CNc1cc(-c2ccccc2C(F)(F)F)ncn1 | 2.0%
CC(=O)C1C(c2cn(-c3ccccc3)nc2-c2cccs2)NC(=O)NC1(O)C(F)(F)F (stereo unspecified) | -3.7%

Carrying on.
SMILES	HSD17B inh
O=C(c1ccco1)N1CCN(Cc2nnnn2CCc2ccccc2)CC1	-4.4%
N#CC1=C(N)n2c(s/c(=C\c3ccco3)c2=O)=C(C#N)C1c1ccco1 (stereo unspecified)	?
CC(C)Cc1cc(C(=O)NCCc2ccccc2)no1	4.2%
COC(=O)C1=C(C)NC(=O)NC1c1ccc(OCC(=O)N2CCCCC2)cc1 (stereo unspecified)	10.8%
CC(C)(C)OC(=O)NCCCC(CCCNC(=O)OC(C)(C)C)C(=O)O	1.4%
Cn1nc(C(=O)NCc2ccc(F)cc2)c2ccccc2c1=O	-5.5%
CC(C)CC(NC(=O)C1CCCCC1)C(=O)NCc1ccccn1 (stereo unspecified)	7.5%
O=c1[nH]cnc2c1N1CCC2CC1	12.9%
COc1ccc(N(CC(=O)O)S(C)(=O)=O)cc1OC	6.0%
COC(=O)C(c1cc(OC)c(O)c(OC)c1)(N1CCNC(C)C1)C(F)(F)F (stereo unspecified)	-0.7%
Cc1nnc(SCC(=O)Nc2nsc(-c3ccccc3)n2)s1	21.9%
CCCCn1nc(C(=O)O)ccc1=O	-5.0%
CC1CCC2[C@](C)(CO)C(O)CC[C@]2(C)C12CCC(CO)(CCO)O2 (stereo partly specified)	0.7%
CCC/C=C(\CCC)C(NS(=O)(=O)c1ccc(C(F)(F)F)cc1)c1ccc(C(=O)OC)cc1 (stereo unspecified)	4.3%
Cc1nn(C)c(C)c1NC(=O)c1ccnn1C	9.8%
CCCS(=O)(=O)N1CCN(C(=O)c2cccs2)CC1	8.4%
O=C(Cn1nnc(-c2cccc(C(F)(F)F)c2)n1)N1CCOCC1	3.9%
COC(=O)[C@@]1(Cc2ccc(F)cc2)[C@H]2c3cc(C(=O)N4CCCC4)n(CCO)c3C[C@H]2CN1C(=O)c1ccccc1	25.1µM*
O=C(CCCc1nc(-c2ccccc2Cl)no1)NC1CCCCC1	0.1%
O=C(O)CNC(=O)CC12CC3CC(CC(C3)C1)C2	3.0%
Cc1cccc(C)c1OCC(=O)NCc1nnc(SCC(=O)NC2CCCCC2)n1C	1.8%
CC(=O)c1c(OC(=O)c2ccco2)c2ccccc2n1C	10.2%
Cc1ccc(C)c(NC(=O)Cn2nc(C)c3ccccc3c2=O)c1	5.6%
Cc1nc(SCC(=O)c2ccc(F)cc2)n[nH]1	1.7%
COc1ccc(S(=O)(=O)N(CC(=O)O)c2ccccc2)cc1	3.5%

Quoted at random: two entries already listed
SMILES	HSD17B inh
Cc1ccc(C)c(NC(=O)Cn2nc(C)c3ccccc3c2=O)c1	5.6%
COc1ccc(N(CC(=O)O)S(C)(=O)=O)cc1OC	6.0%

Continuation.
SMILES	HSD17B inh
CCCOc1cccc(C2/C(=C(/O)c3ccc(OC)cc3)C(=O)C(=O)N2CCN(C)C)c1 (stereo unspecified)	-0.9%
CCCP(=O)(CC(=O)O)c1ccccc1 (stereo unspecified)	6.3%
O=C(O)c1cc(=O)[nH]c(SCc2ccccc2)n1	7.3%[11.4 µM]
O=C(Cn1c(CC(=O)N2CCOCC2)nc2ccccc21)Nc1ccc2c(c1)OC(F)(F)O2	-2.7%
N#Cc1c(NCc2ccccc2)ccnc1NCc1cccnc1	-4.2%
C=CCn1c(COc2cccc3cccnc23)nnc1SCC(=O)OC	31.6µM*
CN(C)Cc1ccccc1-c1cc(N(C)Cc2ccco2)ncn1	-1.2%
O=C(Nc1cnn(Cc2ccc(F)cc2)c1)c1cc2nc(-c3ccco3)cc(C(F)(F)F)n2n1	-5.9%
CC(C)C(=O)Nc1c2c(nc3ccccc13)N(C)CC2	31.6µM*
O=C(O)CCNS(=O)(=O)c1ccccc1	?
COc1cccc(N(CC(=O)N2CCN(C)CC2)S(=O)(=O)c2ccccc2)c1	8.6%
Cc1ccccc1S(=O)(=O)Cc1ccc(C(=O)N2CCN(c3ncccn3)CC2)o1	-4.6%
Cc1ccc(S(=O)(=O)N2CCN(C(=O)CN3CCOCC3)C2)cc1	3.9%
Cc1ccc(-c2nnc(N3CCN(C(=O)CN4CCOCC4)CC3)c3ccccc23)cc1	-1.0%
CCOCCCNC(=O)c1cc2sc(Cl)cc2n1CC	-6.7%
CC1CCCN(C(=O)CNC(=O)Cn2ccc3ccccc3c2=O)C1 (stereo unspecified)	-16.1%
CCCC/C=C/C(NC(=O)c1ccco1)c1ccccc1 (stereo unspecified)	12.6µM*
O=C(C1CC1)N1CCc2cc(Br)cc(S(=O)(=O)NCc3ccco3)c21	-3.8%
CCOC(=O)CSc1n[nH]c(-c2cccnc2)n1	6.6%
CC1=C(C(=O)Nc2ccccc2)C(c2cccs2)C(C#N)=C(SCC#N)N1 (stereo unspecified)	31.6µM*
O=C(c1cc2nc(-c3ccco3)cc(C(F)(F)F)n2n1)N1CCN(c2ccccn2)CC1	?
COc1ccccc1CNC(=O)N[C@@H](Cc1ccccc1)C(=O)O	3.1%
FC(F)(F)c1nnc2sc(-c3ccco3)nn12	6.1%
O=C(CCn1c(=O)sc2ccccc21)Nc1ccon1	-8.4%
OCCNCCCCOc1ccccc1F	-0.9%
